# eIF4H FP inh: human eIF4H binding inhibitors, primary screen, translation initiation inhibitor project, biochemical, uHTS, fluorescence polarization. Eukaryotic translation initiation factor 4H (Homo sapiens), Q15056. eIF4H fluorescence polarization binding assay. inhibition, % at 35 µM. hit rate 0.94% among 290,000;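 active = 50% or more with normal probe brightness, or confirmed in later tests; inconclusive = above 50% with abnormal brightness, or retests that disagree; inactive = below 50% or failed in later tests; about a fifth of its hits are not listed in these tables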;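 also: calls also rest on retests at 20 µM and on dose response follow-up; 0% = protein and probe with vehicle and 100% = probe without protein; strong numbers were not always called active; many hits fall short of the cut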
# UUG fidelity: modulators of yeast start codon fidelity, primary screen, whole organism, S. cerevisiae, single point, plate reader. S. cerevisiae UUG-firefly luciferase reporter, luminescence/redox ratio. activity score, % at 18.7 µM. hit rate 0.13% among 350,000;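 active = replicate mean at a twofold rise or more, about +100% in these data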;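 also: firefly luciferase made from a UUG start codon reports start codon fidelity; reporter light over untreated wells divided by growth signal over untreated wells; some hits fall short of that in this replicate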
# CSC inhib: cancer stem cell viability inhibitors, primary screen, luminescence | cancer stem cell-like cells viability | inhibition, % at 7.5 µM | hit rate 1.1% among 300,000;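 active = mean at 75% or more and at least half the replicates too; inconclusive = mean and replicates disagree; tested in HMLE shEcad cells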;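 also: 0% = median of negative and 100% = median of positive control wells; the first replicate is given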
# PABP polyA inh: PABP poly(A) RNA binding inhibitors, primary screen, biochemical, fluorescence polarization, uHTS; hit rate 1% among 290,000; Polyadenylate-binding protein 1 (Homo sapiens), P11940; inhibition, % at 35 µM;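 active = 50% or more with normal probe brightness, or confirmed in later tests; inconclusive = above 50% with abnormal brightness, or retests that disagree; inactive = below 50% or failed in later tests; about a fifth of its hits are not listed in these tables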;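 also: calls also rest on retests at 20 µM and on dose response follow-up; controls were probe without protein and protein plus probe with vehicle; some compounds called inactive have numbers as strong as hits; many hits fall short of the cut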
# Target sequence (P11940 whole entry, looked up): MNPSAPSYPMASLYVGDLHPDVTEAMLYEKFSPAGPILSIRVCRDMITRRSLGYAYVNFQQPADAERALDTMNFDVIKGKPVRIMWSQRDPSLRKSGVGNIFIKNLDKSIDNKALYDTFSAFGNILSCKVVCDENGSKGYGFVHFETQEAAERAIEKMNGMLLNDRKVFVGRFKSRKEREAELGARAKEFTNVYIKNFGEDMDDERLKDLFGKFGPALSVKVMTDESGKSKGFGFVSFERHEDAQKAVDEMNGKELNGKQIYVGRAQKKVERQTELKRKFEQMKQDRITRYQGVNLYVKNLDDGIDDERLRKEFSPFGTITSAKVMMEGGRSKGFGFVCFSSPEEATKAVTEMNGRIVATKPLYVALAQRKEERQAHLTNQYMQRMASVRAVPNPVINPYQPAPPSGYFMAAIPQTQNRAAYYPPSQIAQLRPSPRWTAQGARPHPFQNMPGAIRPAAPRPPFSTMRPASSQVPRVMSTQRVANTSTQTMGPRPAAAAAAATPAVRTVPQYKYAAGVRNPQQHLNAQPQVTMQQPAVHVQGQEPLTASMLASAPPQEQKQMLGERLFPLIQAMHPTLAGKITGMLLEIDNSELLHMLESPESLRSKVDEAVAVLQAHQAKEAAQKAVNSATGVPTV
# HIV Env fusion: inhibitors of HIV-1 Env-driven cell-cell fusion, primary screen, HeLa-JRFL effector, CEM21 target cells, luciferase; hit rate 1.1% among 360,000; inhibition, % at 12.3 µM; AID 651610, 2012;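 active = mean replicate inhibition score of at least 50 and every replicate individually at or above 50; inconclusive = only one of the two criteria met; inactive = mean below 50 and not all replicates reaching 50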;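 also: 0% = plate neutral controls and 100% = maraviroc near 300 nM; one replicate is shown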
# MT1-MMP act inh: blockers of MT1-MMP proenzyme processing, primary screen, HT1080 RFP-PRO-GFP cells, GFP/RFP fluorescence | Matrix metalloproteinase-14 (Homo sapiens), P50281 | GFP/RFP ratio fluorescence, overnight; percent of plate control window, DMSO zero | GFP/RFP ratio change, % at 20 µM | hit rate 0.061% among 360,000;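 active = GFP/RFP ratio change of at least 30% with cell ATP level not reduced by more than half and red fluorescence within 50% of control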; also: strong numbers were not always called active
#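 Assay system: HT1080 RFP-PRO-GFP cells. Benchmarks: DMSO vehicle wells and RFP-L50D-GFP reporter cell wells. Times: overnight cell settling, then overnight compound exposure, 37 °C, 5% CO2. Compound: 20 µM single dose, 1% DMSO. Read-out basis: GFP/RFP fluorescence ratio.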
# Rce1 inhib: yeast Rce1p protease inhibitors, primary screen, biochemical, fluorescence, cell-free homogeneous. yeast membranes, quenched prenylated peptide cleavage fluorescence. CAAX prenyl protease 2 (Saccharomyces cerevisiae (strain ATCC 204508 / S288c)), Q03530. hit rate 0.27% among 290,000. calls only;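 active = fall in fluorescence gain of 50% or more versus controls, with final raw signal at or below 3038400; inconclusive = same 50% fall but final raw signal above 3038400; inactive = fall in fluorescence gain under 50%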;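 also: plate controls were neutral control wells for no effect and wells lacking membranes for full effect; tested at 10 µM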
# eIF4H FP inh retest: further read-out of eIF4H FP inh, marked with its call; inhibition, %; compound at 20 µM; confirmation average;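 mean of two retest wells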
# PABP polyA inh retest: also measured in PABP polyA inh; calls as there; inhibition, %; compound at 20 µM; confirmation repeats;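 mean of two retest wells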
# MT1-MMP act inh RFP: recorded beside MT1-MMP act inh, whose call it bears; RFP signal change, %; measured here: RFP expression control read;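 0 = vehicle wells; hits needed this value within 50% of zero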
# Numbers without * were called inactive; i = inactive; u = inconclusive; x = not tested or not shown; & = joins results of further samples; [ ] = another dose, or the depositor's remark. These rows are one share of the data; count on the stated rates, not on these rows.
SMILES,eIF4H FP inh,UUG fidelity,CSC inhib,PABP polyA inh,HIV Env fusion,MT1-MMP act inh,MT1-MMP act inh RFP,Rce1 inhib,others
O=C(Nc1ccccc1)C1=C[C@@H](c2ccc(Br)cc2)C[C@@H](OCc2ccc(CO)cc2)O1,4,2&-6,70,9,-12[16.7 µM],1,-2,i,
C=CCc1ccc(OCC(O)CN2CCN(Cc3ccc(Cl)cc3)CC2)c(OC)c1 (stereo not drawn),2,x,42,6,1,-1,-6,i,
CCNC(=O)C1CC(=O)N(Cc2ccc3c(c2)OCO3)C(=Nc2ccc(F)cc2)S1 (stereo not drawn),-6,0,-10,-10,x,7,-3,i,
COc1cccc(S(=O)(=O)N2CCN(c3ccccc3F)CC2)c1,-7,-12,3,-5,-2,-3,-6,i,
CSCCC(NC(=O)COc1ccccc1)C(=O)OCC(=O)c1ccccc1 (stereo not drawn),x,-4,-2,x,-5,3,4,i,
Cc1cc(C)n2c(SCC(=O)Nc3ccccc3)nnc2n1,-2,-10,0,-1,-8,2,0,i,
CCOc1ccc(-n2c(SCC(=O)NC)nnc2-c2ccco2)cc1,-15,-18,2,12,-17,0,1,i,
NC(=O)C1(c2ccccc2)OC1c1ccccc1 (stereo not drawn),x,-7,-4,x,-20,2,2,i,
OCCNCCCCOc1cccc(Br)c1,2,x,11,2,x,6,7,i,
Cc1ccc(S(=O)(=O)N2C(=O)CCC2C(N)=O)cc1 (stereo not drawn),0,-6,-9,-2,-2,5,5,i,
Cn1c(C(=O)O)c(CC(=O)Nc2ccc(F)cc2F)c2ccccc21,-5,-17,3,6,x,1,5,i,
O=C(CCCc1ccccc1)NC12CC3CC(CC(C3)C1)C2,-4,1,-6,-6,-44,-1,-3,i,
FC(F)(F)c1cnc(Nc2ccc(N3CCOCC3)cc2)c(Cl)c1,-7,-11,-4,-11,-84,5,0,i,
O=C(O)CN1CCN(Cc2ccc(F)cc2)C1=O,-2,-14,-7,9,13,1,4,i,
COc1ccc(C(C)(C)C)cc1NC(=O)c1ccccc1-n1cnnn1,x,16,1,x,x,-1,0,x,
Cc1cc(C)cc(-n2ccnc2SCC(=O)O)c1,-3,-10,-13,-9,7,9,2,i,
O=C(NCCOc1ccccc1)c1cc(S(=O)(=O)N2CCOCC2)ccc1F,-6,3,x,5,2,-3,-1,i,
CN(C)C(=O)c1cccc(-c2cc(NC=O)c3ncc(-c4ccc(F)c(Cl)c4)n3c2)c1,x,6,x,x,-14,-4,-6,x,
COc1ccc(NC(=O)CN(C)C(=O)c2ccc(N3CCOCC3)c([N+](=O)[O-])c2)cc1,x,-14,-8,x,x,6,1,i,
COc1ccc(Cn2nc(C)n(N(C)c3ncc(C(F)(F)F)cc3Cl)c2=O)cc1,-12,7,8,-4,-12,2,2,i,
COc1cc(NS(=O)(=O)c2ccc(N/C=C(\C#N)c3nc4cc(Cl)ccc4o3)cc2)nc(OC)n1,40,-14,95*,50,x,3,2,i,
COc1ccccc1NC(=S)N(Cc1ccc(Cl)cc1)CC1CCC(C(=O)O)CC1 (stereo not drawn),-13,-31,6,-4,-2,0,-7,i,
CCOC(=O)c1sc(NC(=O)Cn2nnc3sc4c(c3c2=O)CCCC4)nc1C,-5,-13,0,-3,-84,-5,0,i,
COc1cccc(CN2CCC2(C)C(=O)Nc2cccc3cccnc23)c1F (stereo not drawn),x,-22,x,x,-14,-3,-14,x,
CC1CCCCC1NC(=O)COC(=O)c1ccccc1NC(=O)c1ccco1 (stereo not drawn),-9,-8,-15,5,x,1,7,i,
COc1ccc(S(=O)(=O)Nc2cc(Cl)ccc2-n2cncn2)cc1,x,-9,x,x,21,-7,0,x,
COc1ccccc1N1CCN(C(=O)C2CCCN(S(=O)(=O)c3ccc(C)cc3)C2)CC1 (stereo not drawn),x,-9,x,x,2,0,-15,x,
O=C1/C(=C/c2cccnc2)CCC/C1=C\c1cccnc1,-4,x,103*,-6,u,x,x,x,
Cc1cc(C)nc(SCC(=O)N(C)C)n1,-10,x,-7,-20,-2,1,2,i,
COc1cccc(O)c1CN1CCC(n2nccc2NC(=O)c2ccc3c(c2)OCO3)CC1,-12,-8,-17,-2,-24,1,0,i,
COc1ccc(-c2c[n+]3c(n2-c2ccccc2)SCC3)cc1OC,0,x,x,9,-5,1,-4,i,
COc1ccc(C2CCCN2C(=O)Nc2ccccc2)cc1OC (stereo not drawn),-9,-14,3,0,3,1,-3,i,
O=C(/C=C/c1ccc(Cl)cc1)NC(=S)Nc1ccc(C(=O)O)cc1,5,-7,-4,-3,-4,-4,-1,i,
O=S1(=O)CCO[C@H]2Cc3ccccc3[C@H]2N1Cc1ccccc1Br,7,-15,-26,5,-14,3,-1,i,
Cc1cc(C)c2nc(-c3ccccn3)cc(C(=O)NCc3ccco3)c2c1,48*,-30,0,82*,x,2,5,i,eIF4H FP inh retest=84*;PABP polyA inh retest=92*
O=C(Nc1ccccc1N1CCCCC1)c1ccco1,-12,-12,-12,-6,x,0,-6,i,

# Not a retest: an excerpt of the list.
SMILES,eIF4H FP inh,UUG fidelity,CSC inhib,PABP polyA inh,HIV Env fusion,MT1-MMP act inh,MT1-MMP act inh RFP,Rce1 inhib,others
COc1ccccc1NC(=S)N(Cc1ccc(Cl)cc1)CC1CCC(C(=O)O)CC1 (stereo not drawn),-13,-31,6,-4,-2,0,-7,i,
CCOC(=O)c1sc(NC(=O)Cn2nnc3sc4c(c3c2=O)CCCC4)nc1C,-5,-13,0,-3,-84,-5,0,i,
COc1cccc(CN2CCC2(C)C(=O)Nc2cccc3cccnc23)c1F (stereo not drawn),x,-22,x,x,-14,-3,-14,x,
CC1CCCCC1NC(=O)COC(=O)c1ccccc1NC(=O)c1ccco1 (stereo not drawn),-9,-8,-15,5,x,1,7,i,
COc1ccc(S(=O)(=O)Nc2cc(Cl)ccc2-n2cncn2)cc1,x,-9,x,x,21,-7,0,x,
COc1ccccc1N1CCN(C(=O)C2CCCN(S(=O)(=O)c3ccc(C)cc3)C2)CC1 (stereo not drawn),x,-9,x,x,2,0,-15,x,
O=C1/C(=C/c2cccnc2)CCC/C1=C\c1cccnc1,-4,x,103*,-6,u,x,x,x,
Cc1cc(C)nc(SCC(=O)N(C)C)n1,-10,x,-7,-20,-2,1,2,i,
COc1cccc(O)c1CN1CCC(n2nccc2NC(=O)c2ccc3c(c2)OCO3)CC1,-12,-8,-17,-2,-24,1,0,i,
COc1ccc(-c2c[n+]3c(n2-c2ccccc2)SCC3)cc1OC,0,x,x,9,-5,1,-4,i,
COc1ccc(C2CCCN2C(=O)Nc2ccccc2)cc1OC (stereo not drawn),-9,-14,3,0,3,1,-3,i,
O=C(/C=C/c1ccc(Cl)cc1)NC(=S)Nc1ccc(C(=O)O)cc1,5,-7,-4,-3,-4,-4,-1,i,

# Additional entries:
SMILES,eIF4H FP inh,UUG fidelity,CSC inhib,PABP polyA inh,HIV Env fusion,MT1-MMP act inh,MT1-MMP act inh RFP,Rce1 inhib,others
Cn1nnnc1SCCNC(=O)C1CCC(=O)N(Cc2cccc(C(F)(F)F)c2)C1 (stereo not drawn),x,0,x,x,-2,5,-1,x,
COc1ccc(OC)c(C2C3=C(CCCC3=O)NC3=C2C(=O)CCC3)c1,14,-10,-5,-8,x,1,5,i,
COC(=O)C1=C(C)NC(=O)NC1c1ccccc1 (stereo not drawn),2,x,-3,-7,-9,5,2,i,
O=C(CN1C(=O)NC2(CCCC2)C1=O)NCCc1ccccc1,x,-16,-12,x,-3,-1,1,x,
CCOC(=O)c1cnc2nc(COc3ccccc3)[nH]n2c1=O,-2,-12,-15,3,-20,-3,1,x,
Cc1ccc(C(=O)c2sc(Nc3ccccc3)c(C#N)c2N)cc1,22,x,45,-12,5,3,-5,i,
COc1cc(NS(=O)(=O)c2ccc(NC(=S)NC(=O)c3cccs3)cc2)nc(OC)n1,-3,x,9,11,-1,-4,-2,i,
COc1ccc(N2CCN(Cc3nc4scc(-c5ccccc5)c4c(=O)[nH]3)CC2)cc1,31,x,14,0,3,-5,-6,i,
CNS(=O)(=O)c1cn(CC(=O)NCc2ccccc2OC)cc1S(=O)(=O)NC,3,-19,0,-6,17,-3,0,i,
COc1ccc(NC(=O)C(NC(C)=O)C(=O)Nc2ccc(F)cc2)cc1 (stereo not drawn),7,x,1,4,-71,4,4,i,
Cc1ccc(OCC(=O)N2CCCCCC2)c(C)c1,-4,-10,6,-3,x,-4,-3,i,
Cc1ccc(C)c(S(=O)(=O)N2CCN(C(=O)c3ccccn3)CC2)c1,x,-5,x,x,8,-2,2,x,
O=C(COc1ccc([N+](=O)[O-])cc1)Nc1ccc2c(c1)OCO2,-7,x,-3,-8,11,3,7,i,
CCOc1ccc(N(CC(=O)N2CCCCCC2)S(C)(=O)=O)cc1,-7,-5,-6,0,-25,-2,-1,i,
O=C(NCCN1CCCC1)c1ccc2c(=O)n(CCc3ccccc3)c(=O)[nH]c2c1,2,-9,-9,-7,-104,-10,-4,i,
O=c1c2ccccc2nc2n1CCN2,8,-6,-6,-12,x,3,5,i,
Cc1ccc(NC(=O)c2sc3ncnc(N4CCN(c5ccccn5)CC4)c3c2C)c(C)c1,-20,-13,38,-5,27,1,-8,i,
CC(CN1CCN(C)CC1)OC(=O)c1cccc(F)c1 (stereo not drawn),-7,7,-8,-7,-11,-2,1,i,
Cc1ccc(C(=O)NNC(=O)CCCN2C(=O)/C(=C/c3ccccc3Cl)SC2=S)cc1,4,-3,38,17,-11,1,5,i,
CCN1CCN(c2ncnc3sc(C)c(-c4ccccc4)c23)CC1,-15,-16,-14,-2,8,-8,-2,i,
COc1ccc(NC(=O)C2(C)Cc3c(-c4ccc(NC(C)=O)cc4)ccnc3O2)cc1OC (stereo not drawn),x,8,x,x,-3,1,-1,x,
O=S(=O)(c1ccccc1)N1CCN(c2ccnc3cc(Cl)ccc23)CC1,1,x,5,-6,17,-3,-13,i,
O=C(Nc1cccnc1)c1ccc(Oc2ccccc2)cc1,-4,-26,7,-6,-66,8,1,x,
O=c1[nH]c(-c2ccc(F)cc2)nc2c1sc(=S)n2-c1ccccc1,-1,-22,18,6,11,-4,-18,i,
Cc1nc2ccccc2c2c1C(=O)N(C(C)C)C2=O,-9,x,-1,-6,x,-3,5,i,
CC(C)c1ccc(-c2nnn(Cc3nc4ccccc4s3)n2)cc1,2,-22,18,2,10,-3,-5,i,
COCCOC(=O)c1c(C)oc2cc(Br)c(OCC(N)=O)cc12,6,x,-8,-5,-30,1,-3,x,
O=C(C=Cc1ccc2c(c1)OCO2)c1ccccc1,x,-30,x,x,-22,-4,-1,x,
